# CBX7 AlphaScr: CBX7 chromodomain binding inhibitors, primary screen, biochemical, AlphaScreen | Chromobox protein homolog 7 (Homo sapiens), O95931 | AlphaScreen His6-CBX7 / biotin-H3K27me3 peptide binding; hits give low values | 1.1% of 66,000 active | normalised signal (fraction of DMSO) (no concentration beside the values); in the data active = normalised signal below about 0.5;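 note: 100 nL library stock added to about 20 µL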
# Target sequence (O95931 whole entry, looked up): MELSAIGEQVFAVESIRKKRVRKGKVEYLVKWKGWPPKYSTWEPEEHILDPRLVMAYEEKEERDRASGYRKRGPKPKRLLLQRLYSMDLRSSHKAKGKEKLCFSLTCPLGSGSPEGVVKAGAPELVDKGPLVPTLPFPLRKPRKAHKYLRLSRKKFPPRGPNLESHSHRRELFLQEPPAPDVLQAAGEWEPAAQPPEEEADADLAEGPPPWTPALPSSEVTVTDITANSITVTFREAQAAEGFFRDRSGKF
# CBX7 AlphaScr z-score: also measured in CBX7 AlphaScr; calls as there; z-score; measured here: z-score of CBX7 signal; some inactives read as strong as hits; reference of the scale not given here;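 same signal on another scale; lower means less binding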
# * marks the source's active call; other numbers are inactive results; & = joins results of further samples. Some of the compounds tested; the hit share may differ from the screen's.
SMILES,CBX7 AlphaScr,CBX7 AlphaScr z-score
O=C(Cn1cc2c(n1)CCCC2)N1CCN(Cc2ccccc2)CC1,1.01,0.251
Cc1ccc(-c2cn(-c3cccc(Cl)c3)c(S(=O)(=O)CC(=O)Nc3ccccc3)n2)cc1,0.928,-0.697
O=C1C2C3C=CC(C3)C2C(=O)N1CCN1CCN(c2nc(-c3ccccc3)cs2)CC1 (configuration not stated),0.855,-3.59
Cc1oc(-c2ccccc2Cl)nc1CSCC(=O)NCc1ccc(F)cc1,0.949,-0.961
O=C(Nc1ccc(Br)cc1)c1cc(-c2ccccc2)nc2ccc(Cl)cc12,0.899,-1.57
Cc1nc(N2CCN(c3ccc(F)cc3)CC2)c2cc(C)sc2n1,0.958,-1.89
COc1ccc(C(=O)NC(C)C(c2cccs2)N2CCN(c3ccccc3F)CC2)cc1 (configuration not stated),0.82,-1.9
CCOC(=O)c1nc(Nc2ccc3c(c2)CCC3)c2ccccc2n1,0.953,-0.5
COc1ccc(C2C(C(=O)NC3CCCCCC3)c3cc(OC)c(OC)cc3C(=O)N2C)cc1 (configuration not stated),1.2,1.9
COc1cccc(NC2c3ccccc3C(=O)N2c2ccc(Cl)cc2)c1 (configuration not stated),0.792,-5.62
CCCCNC(=O)c1cc2c(-c3cccc(OC)c3)nn(C)c2s1,0.895,-1.35
Cc1nc2c(C(=O)N3CCCC3)c[nH]n2c(=O)c1Cc1ccc(Cl)cc1,0.983,-0.168
COc1ccc2nc(C)cc(Nc3ccc(Cl)c(Cl)c3)c2c1,1.05,1.47
CCOc1ccc(-c2cnc3ccccc3n2)cc1,1.16,1.7
COc1ccc(C(=O)NCc2nnc(SCC(=O)NC3CCCC3)o2)cc1,1.15,1.6
CCOc1ccc2nc(N3CCC(C(=O)NCCc4ccccc4)CC3)sc2c1,1.01,0.0526
CCn1cc(CNC(=O)c2cc(-c3ccc(C)cc3)nc3ccc(Br)cc23)c(C)n1,0.973,-0.79
O=C(Cn1nc(Cc2ccncc2)c2ccccc2c1=O)Nc1ccccc1F,0.961,-1.09
Cc1cccc(NC(=O)Cn2cnc3sc4c(c3c2=O)CCCC4)c1,0.923,-2.07
CN1C(=O)C(O)(CC(=O)c2ccncc2)c2ccccc21 (configuration not stated),1.03,0.246
CCOc1ccc2nc(C)cc(Nc3ccc(C(=O)O)cc3)c2c1,0.669,-4.8
Cc1cccc(NC(=O)CSc2nnnn2-c2ccccc2F)c1C,1.03,0.0468
O=C(Nc1ccc2oc(-c3ccccc3Cl)nc2c1)c1cccnc1,1.04,1.18
COc1cccc(CN2C(=O)c3ccccc3C2C(=O)NC2CCCCCCC2)c1 (configuration not stated),0.827,-3.42
Cc1ccc(-c2cc(C(=O)Nc3cccc(F)c3)c3ccccc3n2)cc1C,1.14,0.504
Cn1c(C(=O)NCCCN2CCCC2)cc2sc(Cl)cc21,0.997,-0.0502
COc1ccc(-c2cc(C(F)(F)F)nc(N(C)Cc3ccccc3)n2)cc1OC,1.35,14.3
Cc1nc2cc(-c3cccc(F)c3)nn2c(C)c1CCC(=O)NCCCOC(C)C,0.919,-1.34
Cc1cc2cc(CCNC(=O)c3ccc4ccccc4c3)c(=O)[nH]c2cc1C,0.967,-0.214
COc1ccc(CNC(=O)CCCOc2cc(=O)n(C)c3ccccc23)cc1,0.94,-0.984

# One compound at a time, from the list above.
# Entry for O=C(Nc1ccc2oc(-c3ccccc3Cl)nc2c1)c1cccnc1 = CBX7 AlphaScr: 1.04; CBX7 AlphaScr z-score: 1.18
# Entry for CCOc1ccc2nc(C)cc(Nc3ccc(C(=O)O)cc3)c2c1 = CBX7 AlphaScr: 0.669; CBX7 AlphaScr z-score: -4.8

# Continued:
SMILES,CBX7 AlphaScr,CBX7 AlphaScr z-score
COc1ccc(C(=O)Nc2cccc(-c3cn4ccccc4n3)c2)cc1,1.01,0.305
O=C(CCn1c(=O)[nH]c2ccsc2c1=O)NCCc1ccc(Cl)cc1,1.02,0.49
Brc1ccccc1-c1nc(-c2ccccn2)no1,0.861,-2.73
COc1ccc(C2C(=O)N(CCc3ccccc3)CC(=O)N2CCc2ccc(OC)c(OC)c2)cc1 (configuration not stated),1.03,1.31
CCOC(=O)c1[nH]c(=O)[nH]c1CSc1nc(C)cc(-c2ccccc2)n1,0.631,-1.62
Cc1c(NC(=O)c2cncc(Br)c2)cccc1-c1nc2ccccc2o1,0.963,-0.386
O=c1[nH]c2ccc(Cl)cc2c(-c2ccccc2)c1N1CCN(c2ccccn2)CC1,0.975,-1.28
CCOCCCNC(=O)c1ccc2c(c1)N(Cc1ccccc1C)C(=O)CS2,1.05,0.488
COc1ccc2[nH]c(C)c(CNc3ccccc3)c(=O)c2c1,1.07,1.08
COc1ccc2nc(NC(=O)C3CCN(S(=O)(=O)c4cccc5nonc45)CC3)sc2c1,0.996,-0.00593
CCN(CCCNC(=O)Cn1ncc2c1-c1ccccc1OC2)c1cccc(C)c1,0.768,-2.91
Cc1cc(N2CCN(C)CC2)nc2ccc(NC(=O)c3cc(-c4cccs4)nc4ccccc34)cc12,1.1,1.74
Cc1ccc(-n2ncc(C(=O)Nc3cc(C)cc(C)c3)c2C2CCN(C(=O)OC(C)(C)C)CC2)cc1,1.03,0.993
Cc1cccc(NC(=O)Cn2c(=O)n(C)c3ccccc32)c1,1.14,2.68
CCN1C(=O)c2ccccc2S(=O)c2ccc(C(=O)N3CCN(C)CC3)cc21 (configuration not stated),1.11,2.81
Cc1c(C(=O)NCc2cccnc2)oc2ccc(S(=O)(=O)N3CCOCC3)cc12,1.11,0.502
Nn1c2ccccc2n2cc(-c3ccccc3)cc12,1.07,2.41
Cc1ccc(Cn2cc(S(=O)(=O)c3ccccc3)c(=O)c3cc(F)ccc32)cc1,0.965,-0.666
CC(=O)N1CCC(N(CCCOC(C)C)C(=O)Nc2ccc(C)c(C)c2)CC1,1.14,1.06
CCCN(C(=O)Cc1c(C(=O)O)n(C)c2ccccc12)c1cccc(Cl)c1,1.03,0.659
CCN1C(=O)c2ccccc2Sc2ccc(C(=O)NCc3ccc(F)cc3)cc21,0.753,-4.47
O=C1CN(S(=O)(=O)c2ccccc2)C(c2ccccc2)c2cc(Br)ccc2N1 (configuration not stated),0.974,-0.566
CCOC(=O)c1cc(NC(=O)Nc2ccc(Cl)cc2)c(C)nc1C,1.1,1.09
O=C(NCC1CCCO1)c1ccc2c(c1)N(Cc1ccc(Cl)cc1)CCS2 (configuration not stated),0.847,-2.35
COc1ccccc1C(=O)Nc1c2c(nn1-c1ccc(F)cc1)CSC2,0.983,-0.297
COc1ccc(C)cc1NC(=O)C(CCS(C)(=O)=O)NC(C)=O (configuration not stated),1.04,2
Cn1c(NC(=O)Nc2ccccc2Br)cc2sccc21,0.92,-2.31
CCn1c(C(C)NC(=O)c2cccs2)nc2ccccc21 (configuration not stated),0.954,-0.465
COc1ccc(C(C(=O)NC2CCCC2)N(C)C)cc1 (configuration not stated),0.982,-0.785
CCCCNC(=O)c1cnn2c(C)c(Cc3ccc(C)cc3)c(C)nc12,0.945,-1.52
CC1CCCN(S(=O)(=O)c2cccc(-c3cn4cc(Cl)ccc4n3)c2)C1 (configuration not stated),0.983,-0.703
O=C(NCC1CCCO1)c1ccc2c(c1)N(Cc1ccc(Cl)cc1)C(=O)c1ccccc1S2=O (configuration not stated),1.02,0.822
CCOc1ccc(NC(=O)CN2C(=O)c3ccccc3Sc3ccc(C(=O)N4CCCC4)cc32)cc1,0.931,-1.92
Cc1ccc(-c2ccc(=O)n(CC(=O)NC(C)(C)C)n2)cc1,1.01,0.263
CCC1Oc2ccc(C)cc2N(CC(=O)NCc2cc(OC)ccc2OC)C1=O (configuration not stated),0.978,-1.1
O=C(Nc1ccccc1)c1cc(S(=O)(=O)Nc2cccnc2)cs1,0.915,-1.55
c1ccn2c(Nc3ccc4c(c3)OCCO4)c(-c3ccsc3)nc2c1,0.803,-7.4
COc1cccc(NC(=O)C2CCN(c3nnc(-n4cccc4)s3)CC2)c1,0.894,-1.75
Cc1ccc(NC(=O)c2cncc(Br)c2)c(Br)c1,1.06,1.29
CCOc1ccc(-n2nc(C(=O)NC(C)CC)c3ccccc3c2=O)cc1 (configuration not stated),1.01,0.116
Cc1ccc(-c2nc(N3CCOCC3)nc3ccccc23)cc1,1.49,1.92
O=C(NCC1CCCO1)C1CCC(CNS(=O)(=O)c2cccc3cccnc23)CC1 (configuration not stated),0.978,-1
COc1ccc(Cl)cc1-n1cc(-c2ccccc2)nc1SCC(=O)Nc1ccc(C)cc1,0.727,-8.97
CCCNC(=O)Cn1cnc2sc(C(=O)NCCCOC)c(C)c2c1=O,1.02,0.829
COCCCNC(=O)c1ccc2c(c1)N=C(C)c1cc(C)ccc1S2,0.968,-1.53
COc1ccccc1N1CCN(CC(O)COc2ccc(C)cc2C)CC1 (configuration not stated),0.996,-0.0626
O=C(C1CC(c2ccc(F)cc2)=NO1)N1CCN(Cc2ccccc2)CC1 (configuration not stated),1.04,1.79
Cc1ccc(-c2cc(-c3ccc(C)cc3)n3ncnc3n2)cc1,1.05,1.29
COc1ccc(OC)c(NC(=O)Cn2ncc3c2-c2ccccc2OC3)c1,1.13,1.66
OCCCc1nc2ccccc2n1CCCCOc1ccc(Cl)cc1,0.796,-0.886
# New compounds follow:
SMILES,CBX7 AlphaScr,CBX7 AlphaScr z-score
Cc1cccc(OCC(=O)N(Cc2nc(-c3ccc(Cl)cc3)no2)C(C)C)c1,0.812,-1.86
CCC(=O)N1CCc2cc(S(=O)(=O)NC(CC(C)C)C(=O)N3CCC(C)CC3)ccc21 (configuration not stated),1.03,0.901
COc1ccccc1CNC(=O)c1cc(Nc2ccccc2C)nc2ccccc12,1.14,3.95
CN(Cc1ccccc1)C(=O)C1CCCN(S(=O)(=O)c2cnc[nH]2)C1 (configuration not stated),0.88,-1.96
CN1CCN(CCCNC(=O)CN2CCN(Cc3ccc(Cl)cc3)C2=O)CC1,0.835,-2.37
Cc1onc(-c2ccccc2)c1C(=O)Nc1ccc(F)cc1F,1.09,3.19
O=C(C1CC1)N1CCc2cc(S(=O)(=O)N3CCN(C4CCCCC4)CC3)ccc21,1.09,2.63
O=C(NCCc1ccccc1)C1c2ccccc2C(=O)N1Cc1ccccc1 (configuration not stated),0.989,-0.144
COc1ccc2cc(CCNS(C)(=O)=O)c(=O)[nH]c2c1,1.18,1.32
Cc1ccc(-c2n[nH]c3c2C(c2ccc(F)cc2)N(c2ccccc2)C3=O)cc1 (configuration not stated),0.909,-0.933
COc1ccc(Nc2ncc(C(=O)N3CCCC3)c3ccccc23)cc1,1.16,1.81
COc1ccc(-c2nc(C(=O)NC(C)c3ccccc3)c(C)o2)cc1OC (configuration not stated),1.04,0.51
Cc1ccc(OCc2nc3ccccc3n2Cc2ccccc2)cc1,0.912,-1.58
CCOC(=O)c1c(NC(=O)c2cccc(C)c2)sc2c1CCC(C)C2 (configuration not stated),1.3,9.95
CCC1CCCCN1C(=O)Cc1cn(Cc2cccc(Cl)c2)c2ccccc12 (configuration not stated),1.01,0.324
CCOc1ccccc1NC(=O)CCc1c(C)nc2ncnn2c1C,1.14,2.83
O=C(Cn1nc(Cc2ccncc2)c2ccccc2c1=O)N1CCN(c2ccccn2)CC1,0.999,-0.0221
COc1ccc(-c2nc(-c3cccs3)c(-c3cccs3)[nH]2)cc1,0.916,-0.0833
Cc1ccc(NC(=O)c2cc3c(n(-c4ccc(C)cc4)c2=O)CCCC3=O)cc1,1.21,0.725
COc1ccc(C2CC(C(F)(F)F)n3ncc(C(=O)NCc4cccnc4)c3N2)cc1OC (configuration not stated),0.905,-0.095
Cc1ccc(C(=O)c2oc3ccccc3c2NC(=O)COc2c(C)cccc2C)cc1,1.14,0.618
CCS(=O)(=O)NCCc1cc2ccc(C)cc2[nH]c1=O,1.05,1.03
CC(=O)Nc1nc(C)c(-c2csc(Nc3ccc(N)cc3)n2)s1,0.469*,-2.34*
CCCCCCc1cc2cc(-c3csc(C)n3)c(=O)oc2cc1O,1.3,8.33
COc1ccc(NC(=O)C2CCCN(S(=O)(=O)c3cccnc3)C2)cc1Cl (configuration not stated),0.959,-1.39
Cc1ccn2c(Nc3ccc4c(c3)OCO4)c(-c3ccc(Cl)cc3)nc2c1,0.834,-2.71
CC(C)Cn1cc(C(=O)N2CCCC(C)C2)c2c3ccccc3n(C)c2c1=O (configuration not stated),0.945,-0.99
CCN(c1cccc(C)c1)S(=O)(=O)c1ccc2c(c1)CCN2C(=O)C1CC1,1.03,0.799
c1cc2c(cc1Nc1nc3nonc3nc1Nc1ccc3c(c1)OCO3)OCO2,0.37*,-7.98*
O=C(Nc1nc(-c2ccncc2)cs1)c1ccc(S(=O)(=O)N2CCCCC2)cc1,1.02,0.324
CCc1cc(C)cc(OCC(O)Cn2c(C)nc3ccccc32)c1 (configuration not stated),1.01&0.94,0.101&-1.5

# Rewritten bar-delimited: 7 of the compounds above
molecule | CBX7 AlphaScr | CBX7 AlphaScr z-score
O=C(Nc1nc(-c2ccncc2)cs1)c1ccc(S(=O)(=O)N2CCCCC2)cc1 | 1.02 | 0.324
Cc1ccn2c(Nc3ccc4c(c3)OCO4)c(-c3ccc(Cl)cc3)nc2c1 | 0.834 | -2.71
Cc1ccc(C(=O)c2oc3ccccc3c2NC(=O)COc2c(C)cccc2C)cc1 | 1.14 | 0.618
CCc1cc(C)cc(OCC(O)Cn2c(C)nc3ccccc32)c1 (configuration not stated) | 1.01&0.94 | 0.101&-1.5
CCN(c1cccc(C)c1)S(=O)(=O)c1ccc2c(c1)CCN2C(=O)C1CC1 | 1.03 | 0.799
CCS(=O)(=O)NCCc1cc2ccc(C)cc2[nH]c1=O | 1.05 | 1.03
c1cc2c(cc1Nc1nc3nonc3nc1Nc1ccc3c(c1)OCO3)OCO2 | 0.37* | -7.98*

# Assay outcomes: PubChem, several laboratories
